D2 ag – Beta-Arrestin HTS for Positive Allosteric Modulators of the Human D2 Dopamine Receptor: Agonists; D(2) dopamine receptor (Homo sapiens), P14416; DiscoveRx PathHunter D2 beta-arrestin, luminescence, 90 min; 100% = 57 uM dopamine signal; activation, % (concentration not given with the values); 360,000 tested, 0.084% active; AID 624465, 2012; in the data active = activation above about 40%; inconclusive = about 15% to 40%; inactive = below about 15%; note: compound concentration not given in the record; the text of the record calls up to 30% inactive
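Agonist mode: compounds alone added to overnight-plated D2 PathHunter cells for 90 min at 37 C, with 57 uM final dopamine (EC100) defining full response. Beta-arrestin recruitment detected by chemiluminescent reagent, read after 1 h at ambient temperature.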
CtBP-E1A inh – qHTS Assay for Inhibitors of the CtBP/E1A Interaction | activity change, % (no concentration beside the values) | AlphaScreen GST-E1A/His-CtBP binding, 1536-well; active compounds read low; control for the full effect not named in the record | AID 651724, 2012 | 340,000 tested, 0.49% active; in the data active means activity change below about -65%; inconclusive means about -30% to -65%; inactive means above about -30%; note: % is set by controls: 0 for no effect and ±100 for the full control effect
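Protein mix (5X: 125 nM each GST-E1A, His-CtBP) was incubated with pinned compound 2 h at 37 deg C in dark, in 50 mM Tris pH 8.0 buffer with 300 mM NaCl. Glutathione donor and nickel acceptor beads followed; AlphaScreen signal read after 1 h.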
Six1-Eya2 inh – qHTS Assay for Inhibitors of the Six1/Eya2 Interaction. Homeobox protein SIX1 (Homo sapiens) + Protein phosphatase EYA2 (Homo sapiens), …. AlphaScreen GST-Six1/His-Eya2 binding, biochemical; active compounds read low; control for the full effect not named in the record. activity change, % (concentration not given with the values). 360,000 tested, 0.56% active. AID 651725, 2012; in the data active = activity change below about -65%; inconclusive = about -30% to -65%; inactive = above about -30%; note: % is set by controls: 0 for no effect and ±100 for the full control effect
Target sequence (O00167 whole entry, looked up): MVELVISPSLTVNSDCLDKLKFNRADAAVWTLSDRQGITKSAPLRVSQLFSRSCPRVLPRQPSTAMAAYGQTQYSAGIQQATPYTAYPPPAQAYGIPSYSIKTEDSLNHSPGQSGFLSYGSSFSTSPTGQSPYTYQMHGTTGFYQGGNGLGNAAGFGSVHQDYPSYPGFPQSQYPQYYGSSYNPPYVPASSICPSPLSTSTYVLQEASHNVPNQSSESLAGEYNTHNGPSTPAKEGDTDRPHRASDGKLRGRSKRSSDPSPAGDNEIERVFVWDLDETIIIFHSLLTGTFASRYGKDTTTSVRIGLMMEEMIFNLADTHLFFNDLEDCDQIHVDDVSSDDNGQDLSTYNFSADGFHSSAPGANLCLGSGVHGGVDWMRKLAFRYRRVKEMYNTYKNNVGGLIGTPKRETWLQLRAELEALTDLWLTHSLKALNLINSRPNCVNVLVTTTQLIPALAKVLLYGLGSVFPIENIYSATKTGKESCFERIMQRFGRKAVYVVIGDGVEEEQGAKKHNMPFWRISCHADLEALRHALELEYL
Target sequence (Q15475 whole entry, looked up): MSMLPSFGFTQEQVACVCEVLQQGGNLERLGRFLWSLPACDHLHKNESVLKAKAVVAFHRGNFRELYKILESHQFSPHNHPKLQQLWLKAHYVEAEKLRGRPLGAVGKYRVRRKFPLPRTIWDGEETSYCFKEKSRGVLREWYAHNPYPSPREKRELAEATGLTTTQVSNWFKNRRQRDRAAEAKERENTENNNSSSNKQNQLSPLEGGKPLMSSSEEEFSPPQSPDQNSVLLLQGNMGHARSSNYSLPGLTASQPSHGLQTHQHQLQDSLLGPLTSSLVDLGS
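Homogeneous AlphaScreen proximity assay pairing GST-Six1 with His-tagged Eya2 (added as 5X mix: 250 nM and 500 nM) in 50 mM Tris pH 8.0, 300 mM NaCl, 1 mM TCEP. Glutathione donor and nickel acceptor beads; 1 h, 37 °C, dark.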
D2 PAM – Beta-Arrestin HTS for Positive Allosteric Modulators of the Human D2 Dopamine Receptor: Potentiators | D(2) dopamine receptor (Homo sapiens), P14416 | DiscoveRx D2 beta-arrestin cells, luminescence, 90 min; 100% = 57 uM dopamine signal | potentiation, % (concentration not given with the values) | 360,000 tested, 0.23% active; active = potentiation of 50% or more; inconclusive = 30% to 50%; inactive = 30% or less;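 note: compound concentration not given in the record; tested on top of an EC20 dose of dopamine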
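D2 cells co-treated with compound plus 50 nM dopamine (EC20) for 90 min at 37 deg C to detect potentiation. Beta-arrestin recruitment was read as enzyme-fragment luminescence after 1 h at ambient temperature. Full response was set by 57 uM dopamine.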
gsp agonist – qHTS for Agonist of gsp, the Etiologic Mutation Responsible for Fibrous Dysplasia/McCune-Albright Syndrome: qHTS; gsp mutant cells, cAMP HTRF, 30 min; control for the full effect not named in the record; Potency, µM (highest dose often 76.9 µM), inactives show at the top dose activation (cAMP increase), actives largely listed as activators; 340,000 tested, 0.13% active; active = well fitted activation curve with a large enough effect; inconclusive = small, poorly fitted or top-dose-only effect, or another doubt; inactive = no such curve, though single readings can be large or run the other way; cell line not stated here;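 note: phosphodiesterase inhibitor Ro 20-1724 added with compounds to block cAMP breakdown; potency is the fitted concentration of half-maximal effect; nearly all actives have a fitted effect of over 60% in size; about a fifth of the inactives were tested at one dose only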
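Cells stably selected in G418 were plated at 2000/well, grown 16-24 hr, then given compounds in DMSO with the PDE inhibitor […] (300 uM solution added) for 30 min at 37C; cAMP was read by HTRF.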
gsp antag – qHTS for Antagonists of gsp, the Etiologic Mutation Responsible for Fibrous Dysplasia/McCune-Albright Syndrome: qHTS; 340,000 tested, 0.4% active; Potency, µM (highest dose often 76.9 µM), for the others: top-dose activity change, negative = inhibition, most hits filed as inhibitors; gsp-mutant cells, cAMP HTRF, 30 min; control for the full effect not named in the record; active = falling curve of any shape with a large fitted effect; inconclusive = falling curve, mostly with a smaller effect; inactive = flat or rising curve; cell line not stated here;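 note: intracellular cAMP measured with PDE inhibitor Ro 20-1724 present during compound exposure; potency is the fitted concentration of half-maximal effect; % is set by controls: 0 for no effect and ±100 for the full control effect; nearly all actives have a fitted effect of over 65% in size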
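Measurement of cellular cAMP by homogeneous time-resolved fluorescence following a 30 min compound exposure at 37C. The PDE inhibitor […] was present throughout; the assay buffer was DPBS with 0.05% BSA and 0.005% Tween 20.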
An asterisk follows results filed as active; ? = inconclusive; . = not tested or not shown; [ ] = remark or other dose.

The opening two compounds, to show the layout:
No.	Structure	D2 ag	CtBP-E1A inh	Six1-Eya2 inh	D2 PAM	gsp agonist	gsp antag
1	O=C(CSc1nn(-c2ccc(F)cc2)c(=S)s1)NC1CCS(=O)(=O)C1 (configuration not stated)	-13	-21	14	-25	5%[15.4 µM]	.
2	N#CC(=C1CCCC1)c1nc(-c2cc3ccccc3oc2=O)cs1	0.8	24	5	-14	4%	-3%

The list itself, repeating the preview:
No.	Structure	D2 ag	CtBP-E1A inh	Six1-Eya2 inh	D2 PAM	gsp agonist	gsp antag
1	O=C(CSc1nn(-c2ccc(F)cc2)c(=S)s1)NC1CCS(=O)(=O)C1 (configuration not stated)	-13	-21	14	-25	5%[15.4 µM]	.
2	N#CC(=C1CCCC1)c1nc(-c2cc3ccccc3oc2=O)cs1	0.8	24	5	-14	4%	-3%
3	O=C(c1ccc2c(c1)OCO2)N1CCN(c2ccccc2F)CC1	2.7	-1	0	-7	?	?
4	CC1(C)C(=O)OC(C(=O)c2ccccc2)C2(CCCCC2)C1=O (configuration not stated)	-1.4	8	8	1	-19%	0%
5	Cn1c2ccccc2c2cnn(CC(=O)NCCCN3CCN(c4ccccc4F)CC3)c(=O)c21	3.3	.	1	-7	-3%	4%
6	CCOc1ccc(OCC(O)CN2CCN(S(=O)(=O)c3cccc(C(F)(F)F)c3)CC2)cc1 (configuration not stated)	-0.5	-4	3	2	2%[15.4 µM]	-3%
7	OC(COCc1ccccc1)CN1CCc2ccccc2C1 (configuration not stated)	-0.9	-6	2	-27	-44%[inhibitor]	8%
8	CSc1ncccc1C(=O)NCC(c1ccco1)N1CCCCC1 (configuration not stated)	2.2	9	1	-6	9%	-9%

Going on with the list:
No.	Structure	D2 ag	CtBP-E1A inh	Six1-Eya2 inh	D2 PAM	gsp agonist	gsp antag
9	Cn1ccc(=NC=C(C#N)C#N)c2ccccc21	3.1	0	-3	-7	-3%[15.4 µM]	-15%
10	COc1ccc(OC)c(/C=C/C(=O)OCC(=O)N2CCCCC2)c1	-1.5	-77*	-15	-5	?	2%
11	O=C(COc1ccc(S(=O)(=O)N2CCCCC2)cc1)N1CCCC1	-1.7	9	-2	-2	-11%	1%
12	Cc1ccccc1S(=O)(=O)NC(=O)C1(C)CCN1C(=O)C1(c2ccc(Cl)cc2)CCC1 (configuration not stated)	-4.2	4	6	2	.	.
13	CC(=O)Nc1cc2c(cc1Cl)-c1ccc(F)cc1C2O (configuration not stated)	1.4	0	2	8	-17%	-22%
14	COc1ccc(-n2nc3cc(C)c(N)c(Br)c3n2)cc1	3.5	7	0	4	?	8%
15	CCOC(=O)c1cnc(Cc2ccccc2)[nH]c1=O	-0.4	-1	7	-3	0%	-9%
16	O=S(=O)(Nc1ccc2c(c1)nc1n2CCOC1)c1ccccc1	-5.6	-5	-1	3	2%	1%

Other records follow.
No.	Structure	D2 ag	CtBP-E1A inh	Six1-Eya2 inh	D2 PAM	gsp agonist	gsp antag
17	COC(=O)/C(C#N)=C/c1cc(C)sc1C	-1.4	1	6	-3	1%[15.4 µM]	-11%
18	O=C(Nc1cc2c3c(c1)C1CCCC1CN3CC1CCCC21)c1ccccc1 (configuration not stated)	-1.7	-9	-17	-24	26%	-1%
19	CC1CCCN(CC(O)COc2ccc(Cl)cc2)C1 (configuration not stated)	0.3	4	2	-29	-20%	3%
20	CCN1C(=O)c2cccc3c(NC(=O)c4cccc(N5C(=O)CCC5=O)c4)ccc1c23	-0.4	8	-3	-8	-5%	-9%
21	COc1cc(OC)c(C2=NOC(C(=O)NCc3cccs3)C2)cc1Cl (configuration not stated)	-20	-1	-10	5	1%[15.4 µM]	23%
22	CCOC(=O)C1=CCN(S(=O)(=O)c2ccccc2C)C1c1ccc(Br)cc1 (configuration not stated)	-5.3	11	10	-5	.	.
23	O=C(CCNC(=O)c1ccc(Br)o1)NCc1ccccc1Cl	-1.1	5	1	1	36%	6%
24	CC(C)n1c(=O)n(CC(=O)NCC2CCCO2)c(=O)c2c3c(sc21)COC(C)(C)C3 (configuration not stated)	-4.8	.	3	-11	7%	-1%

Marked active in CtBP-E1A inh, of those listed so far:
No.	Structure	D2 ag	CtBP-E1A inh	Six1-Eya2 inh	D2 PAM	gsp agonist	gsp antag
10	COc1ccc(OC)c(/C=C/C(=O)OCC(=O)N2CCCCC2)c1	-1.5	-77*	-15	-5	?	2%

New compounds follow.
No.	Structure	D2 ag	CtBP-E1A inh	Six1-Eya2 inh	D2 PAM	gsp agonist	gsp antag
25	CCOC(=O)N1CCN(CC(O)COc2ccccc2C(C)(C)C)CC1 (configuration not stated)	-2.9	-4	-6	-33	-35%[inhibitor]	4%
26	Cc1ccc(/C=N\NC(=O)c2cc([N+](=O)[O-])cc([N+](=O)[O-])c2)o1	9.1	0	-3	12	6%[15.4 µM]	-4%
27	COc1ccc(N2CCN(C(=O)c3ccc(NS(=O)(=O)c4cccc(F)c4)cc3)CC2)cc1	0.1	-18	-11	3	1%	-24%
28	Cc1cccc(C2=NN(c3ccccc3)[C@H](CO)[C@H]2c2ccc(Cl)cc2)c1	-1.4	65	60	-1	.	-5%
29	Brc1ccc(-c2c[n+]3c(n2-c2ccccc2)SCC3)cc1	0.8	-9	-11	-13	-6%[15.4 µM]	12%
30	COc1ccc(/C=N/NC(=O)c2ccn[nH]2)cc1CSc1ccccn1	0.8	.	-8	-1	-72%[inhibitor]	-15%
31	CCCc1cc(=O)[nH]c(SCC(=O)N2c3ccccc3CC2C)n1 (configuration not stated)	2.3	-3	2	10	3%	-9%
32	Fc1ccc(C2CC(c3cccs3)=NN2C(=S)Nc2ccccc2)cc1 (configuration not stated)	0.4	-21	?	-14	-2%	4%

Additional entries.
No.	Structure	D2 ag	CtBP-E1A inh	Six1-Eya2 inh	D2 PAM	gsp agonist	gsp antag
33	COc1ccc2oc(=O)c(C(=O)N3CCc4ccccc43)cc2c1	-0.4	0	6	-7	-11%	-3%
34	COc1cccc(NC(=O)C(=O)NCC2CCCN2S(=O)(=O)c2cccs2)c1 (configuration not stated)	-1.3	0	1	-3	-30%[inhibitor]	.
35	COC(=O)c1ccc(/C=N/NS(=O)(=O)c2cc(C)ccc2C)cc1	-7.7	1	-7	-50	-8%	24%
36	COCCCN1C(=O)C(CC(=O)NCCN2CCOCC2)CC(C(=O)N(C)C)=C1C (configuration not stated)	-7.0	9	8	-7	.	.
37	CN1CCN(C(=O)c2ccc3c(=O)n4c(nc3c2)CCCCC4)CC1	1.8	8	-2	2	20%	5%
38	Cc1nn(CC(=O)O)c(C)c1NC(=O)c1cccs1	-2.7	.	16	1	-31%[inhibitor]	-3%
39	CC(C)COc1ccc(S(=O)(=O)n2cc(F)c(=O)[nH]c2=O)cc1	3.4	0	-1	-2	-3%[15.4 µM]	.
40	Cc1noc(C(=O)NCc2cccnc2)c1Cl	-0.6	2	-10	-2	4%	6%

(list continues)
No.	Structure	D2 ag	CtBP-E1A inh	Six1-Eya2 inh	D2 PAM	gsp agonist	gsp antag
41	Cc1ccccc1N(Cc1nnc2n1CCCCC2)C(=O)Nc1ccccc1	0.3	0	27	0	-40%	-5%
42	O=c1[nH]c2ccccc2n1CCCN1CCCCC1	0.6	12	0	-20	-2%[15.4 µM]	19%
43	COc1ccc(NC(=O)c2cn(-c3ccccc3)nc2-c2cc3ccccc3o2)cc1	-2.9	-3	-2	-1	-4%	-17%
44	COc1cccc(Nc2nc(Nc3ccc(Cl)c(C(=O)O)c3)nc(C)c2[N+](=O)[O-])c1	-2.2	-20	-23	-1	3%	-12%
45	COc1cccc(C2(c3cccc(OC)c3)CC2C(=O)Nc2ccc(F)cc2)c1 (configuration not stated)	2.4	12	2	-9	-7%[15.4 µM]	-7%
46	CCc1cccc(NC(=O)CN(c2ccc(C)cc2)S(=O)(=O)c2c(C)noc2C)c1	-0.6	.	5	-17	19%	-8%
47	Cc1cccc(OCCC(=O)OCC(=O)Nc2c(C)nn(-c3ccccc3)c2C)c1	-1.7	9	-3	0	0%	2%
48	CC(=O)Nc1ccc(NC(=O)C(C)OC(=O)c2ccc(N(C)C)cc2)cc1 (configuration not stated)	-2.6	0	-6	-5	-2%[15.4 µM]	-3%

(further entries)
No.	Structure	D2 ag	CtBP-E1A inh	Six1-Eya2 inh	D2 PAM	gsp agonist	gsp antag
49	NC(=O)c1ccc(NC(=O)COC(=O)C23CC4CC(CC(C4)C2)C3)cc1	0.4	3	2	9	15%	.
50	CCOC(=O)N1CCC(N(CCN(C)C)C(=S)Nc2cc(Cl)ccc2C)CC1	-1.7	1	-2	-4	-44%[inhibitor][15.4 µM]	-17%
51	COC(CNC(=O)c1ccc2nc(-c3cccs3)c(-c3cccs3)nc2c1)OC	4.0	36	-6	-11	3%	-32%
52	O=C(c1ccco1)N(Cc1ccc([N+](=O)[O-])cc1)c1ccc(Cl)cc1	-1.6	-18	-21	0	-14%	-25%
53	CC(C)CN(C(=O)c1ccc(C(F)(F)F)cc1)c1c(N)n(CC(C)C)c(=O)[nH]c1=O	?	24	11	-4	-3%[15.4 µM]	11%
54	O=C1c2ccccc2S(=O)(=O)c2cc(C(=O)N3CCC(O)CC3)ccc21	2.7	3	6	8	.	17%
55	Cc1nc(C(=O)N2CCC(C)(C(=O)NS(=O)(=O)C3CC3)C2)c(C)o1 (configuration not stated)	-3.8	5	5	-7	.	.
56	Cc1cc(=O)n(Cc2ccccc2)c2ccccc12	-5.8	.	3	-3	-10%	-7%

Carrying on.
No.	Structure	D2 ag	CtBP-E1A inh	Six1-Eya2 inh	D2 PAM	gsp agonist	gsp antag
57	CCOC(=O)C(C(=O)Nc1ccc(C)cc1)C1CCCCC1 (configuration not stated)	0.8	-1	15	-19	4%	-4%
58	CCOC(=O)N1CCN(Cc2cc(=O)oc3ccc4ccccc4c23)CC1	-1.1	9	-5	9	6%	-11%[15.4 µM]
59	O=C(COc1ccc(F)cc1)Nc1cc(Cl)ccc1-n1cncn1	-3.2	-14	21	29	-10%[15.4 µM]	4%
60	CCOc1ccccc1OCCCOc1ccc(C)cc1Cl	-0.6	53	101	-7	11%	-7%
61	O=C(c1ccc2c(=O)n(Cc3ccc(Cl)cc3)c(=S)[nH]c2c1)N1CCCC1	3.0	-8	3	-10	?	-19%

Outcome played no part in choosing rows; 1.4% or so of the library scored in one or more.
